# NPYLR7 agonist: activates Aedes aegypti NPYLR7 receptor; HEK293T NPYLR7/Galpha15, GCaMP6s calcium fluorescence; hit rate 0.15% among 270,000; activation, % at 10 µM; AID 1259423; in the data active means activation above about 40%;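 further: 0% = vehicle and 100% = reference agonist at the receptor; some compounds past the cut are filed as inactive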
# NPYLR7 agonist max-min: further read-out of NPYLR7 agonist, marked with its call; activation, %; measured here: Max-Min RFU normalised activation; some inactives read as strong as hits;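 span of the calcium signal over five minutes; 0% = vehicle and 100% = native peptide agonist; compound fluorescence can raise it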
# Starred values were filed as active, the others as inactive; & = joins results of further samples. Some of the compounds tested, so the mix of outcomes need not match the whole.
SMILES,NPYLR7 agonist,NPYLR7 agonist max-min
Cc1nc2ccc(Nc3nc4cc(Cl)ccc4o3)cc2s1,3,6
CC(C)NC1CCCN(C(=O)c2ccc(CSc3nccn3C)o2)C1 (centres undefined),26,20
Cc1c(C(NC(=O)N2CCOC(CO)C2)C(C)C)oc2ccccc12 (centres undefined),-4,-6
COc1ccc(C2c3cccn3CCN2C(=O)NCCc2ccccc2)cc1 (centres undefined),-1,-2
O=C(CN1C(=O)COc2ccccc21)N1CCN(c2ccc(F)cc2)CC1,0,-1
O=C(CCN1CCCC1=O)NC(c1nccs1)C1CC1 (centres undefined),4,2
Nc1cccc(-n2c(CO)nc3ccccc32)n1,11,10
CC1CCCN(c2nc3c(c(=O)[nH]c(=O)n3C)n2CCSc2nc3ccccc3s2)C1 (centres undefined),4,-2
O=C(Cc1nc(-c2ccc3c(c2)OCO3)cs1)NCc1ccccc1,2,3
CCCc1nc(C(=O)NCc2csc(N3CCOCC3)n2)cs1,2,3
Cc1cccc(-c2ncc(CN3CCN(c4nc(C)ncc4C)CC3)cn2)c1,-1,-2
O=C(c1cccc(F)c1)N1CCc2cc(S(=O)(=O)N3CCCCC3)ccc21,16,6
CCCCC(=O)N(C)c1c(CC)nc2c(OCC(=O)c3ccc(Cl)cc3Cl)cccn12,4,3
COc1ccc(OC)c(NC(=O)C2(C)CCN2C(=O)CCC2CCCC2)c1 (centres undefined),3,3
CCc1ccc(-c2nc(Cc3ccccc3)no2)cc1,20,4
CCCn1ncc(C(=O)N2CCn3cccc3C2c2cccnc2)c1C (centres undefined),3,2
CCCCN(C)c1c(C)nc2c(OCC(=O)C(C)(C)C)cccn12,29,19
Cc1nn(C)c(C)c1C(C)C(=O)NNC(=O)c1ccccc1Cl (centres undefined),-3,-2
O=C(NCC1CCCO1)c1cccc(CNC(=O)C2CC3CCC2C3)c1 (centres undefined),-2,-4
C=CCOc1ccc(C=CC(=O)N(Cc2ccco2)Cc2cccs2)cc1,2,3
Cc1cccc2nc(-c3ccc(Cl)cc3)c(NCc3ccccc3)n12,12,12
O=C(Oc1ccc(Cl)cc1)c1ccc([N+](=O)[O-])cc1Cl,0,7
C1=CC[C@H]2CN(Cc3cc4n(n3)CCCNC4)C[C@H]2C1,-3,35
Cc1nnc(SCC(=O)NC(=O)NCCC(C)C)s1,3,9
O=C(NCCCc1ccncc1)C1CC12CCN(C(=O)c1csc(-c3cccs3)n1)CC2 (centres undefined),16,4
COc1ccc(OCCNC(=O)c2cncn2-c2ccc(-c3ccc(F)c(F)c3)cc2)cc1,5,4
CCOCCOC1CCCN(C(=O)C2CCC2)C1 (centres undefined),-7,-3
CCCc1nc(NC(C)c2ccc(-n3cncn3)cc2)c2cnn(C)c2n1 (centres undefined),1,-2
N#Cc1ccc(S(=O)(=O)Oc2ccccc2)cc1,-11,-9
COc1ccc(OC)c(C(=O)COc2ccc(C(N)=O)cc2)c1,3,0
O=C(NCc1ccco1)c1ccc(CSc2nc(N3CCCC3)cc(C(F)(F)F)n2)o1,9,-1
Cc1ccc(CN(CCN2CCOCC2)CC(O)COCc2ccccc2)s1 (centres undefined),-5,7
COc1ccc(OC)c(N2CCN(Cc3cccc(C)c3)C(C)C2=O)c1 (centres undefined),0,6
Cc1nc(-c2ccc3c(c2)CCN3S(=O)(=O)c2ccccc2)cs1,-7,-7
N#Cc1ccc(N2C(=O)C3C(C2=O)C2C=CC3C23CC3)cc1 (centres undefined),-15,-16
O=S(=O)(NCCNc1nc(-c2ccc(Cl)cc2)nc2cc(Cl)ccc12)c1cccc(C(F)(F)F)c1,7,6
Cc1ccc(N2C(=O)CSC2c2ccccn2)cc1Cl (centres undefined),-6,-11
COc1ccc(Cl)cc1C(=O)Nc1cccc(-c2nc3ccc(C)cc3o2)c1C,-17,-20
COc1cccc(Nc2nnc(SCC#N)s2)c1,2,1
CCc1cccc(NC(=O)CSc2nc3c(-c4ccccc4)c[nH]c3c(=O)n2C)c1,3,2
Cc1cc(Cl)cc2sc(=NC(=O)CCS(=O)(=O)c3ccc(F)cc3)n(C)c12,4,2
COc1ncc(CN2CCC(c3[nH]ncc3Cc3ccccc3)CC2)cn1,4,4
CN(C)CCSc1nc2ccccc2s1,5,3
Oc1ccc(CC(c2ccccc2)c2n[nH]c(C3CC3)n2)cc1 (centres undefined),2,0
COCC(=O)N1CCN(c2nc(-c3cccc(F)c3)nc(C)c2Cc2ccccc2)CC1,20,17
CC(C)N1CCC(C)(C(=O)Nc2ccc(-c3cnco3)cc2)C1 (centres undefined),-1,-1
COc1ccc(N2CCN(C(=O)c3csc(CSc4nnc(C)n4-c4cccc(Cl)c4)n3)CC2)cc1,-1,12
CCN(CC)C(=O)c1cc(-c2ccccc2OC)nc2cc(-c3ccccc3)nn12,3,9
COc1ccc(-c2nc(N(CCC(=O)NC(C)c3ccccc3)Cc3ccco3)c3ccccc3n2)cc1 (centres undefined),5,16
CCOC(=O)C1=C(CC)NC2=C(C(=O)CC(C)(C)C2)C1c1cc2c(cc1[N+](=O)[O-])OCO2 (centres undefined),-5,-10
CS(=O)(=O)N1CCCCC1C(=O)N(Cc1ccccn1)c1nc2c(F)cccc2s1 (centres undefined),2,1
COc1cc(C=NNC(=O)CCn2cnc(-c3ccccc3)c2-c2ccccc2)ccc1O,0,1
O=C(C(=O)N1CCC(N2CCCC(C(=O)N3CCOCC3)C2)CC1)c1ccco1 (centres undefined),15,1
O=C(CC(c1cccc(F)c1)c1c[nH]c2ccccc12)N1CCCC1 (centres undefined),1,5
O=C(NCc1ccc(F)cc1)C(NS(=O)(=O)c1ccccc1)C1CCN(C(=O)c2cccc(F)c2)CC1 (centres undefined),-2,0
O=c1c(-c2ccccc2)[n+]([O-])c2ccccc2n1OCc1ccccc1[N+](=O)[O-],-2,-10
Cc1nc2sccn2c(=O)c1NC(=O)Cc1ccc(Cl)cc1,11,6
CCn1c(N2C[C@@H]3[C@H](C2)[C@H]2CC[C@@H]3O2)nc2cc(C(=O)OC)cnc21,30,12
CC(C)c1nnc(NC(=O)c2ccccc2Nc2ccccc2)s1,1,2
COc1ccc(CCN(C(=O)/C=C/C(=O)O)C2CC(=O)N(c3ccc(Cl)cc3)C2=O)cc1 (centres undefined),0,-1

# (continued)
SMILES,NPYLR7 agonist,NPYLR7 agonist max-min
CCOC(=O)[C@@H]1[C@H](c2ccccc2)[C@@H](NC(=O)c2ccccc2)[C@H]2CCCCN21,-1,3
FC(F)(F)CN=C1NN=C(c2ccccc2)C(c2ccccc2)S1 (centres undefined),8,7
Clc1cccc(Nc2ccc(-n3ccnc3)nn2)c1,-2,-3
CCOC(=O)C(c1cccc(OC)c1)C1C=CC(NC(=O)c2scc(S(=O)(=O)C(C)C)c2Cl)C1 (centres undefined),21,25
CCCCN(C)c1c(C)nc2ccc(C(=O)NC3CCN(C)CC3)cn12,-3,-6
O=C(COc1ccccc1)N1CCN(c2nc(Cc3ccccc3)nc3onc(-c4ccccc4)c23)CC1,1,11
NC(=O)NCC(=O)N1CCCC(C(=O)c2ccc(-c3ccccc3)c(F)c2)C1 (centres undefined),-3,-12
CC1=CC[C@@]2(CO)COC(c3ccccc3O)C1C2 (some centres undefined),5,3
CCC(COC)NC(=O)c1c(C)noc1-c1ccc(C(C)(C)C)cc1 (centres undefined),3,-7
CC(=O)N1CCN(S(=O)(=O)C2CON(C)C2c2ccc3ccccc3c2)CC1 (centres undefined),1,-2
O=C(CSc1nncn1-c1cccc(Cl)c1)NCC1COc2ccccc2O1 (centres undefined),3,-2
CC1CC(=NNC(=S)NC2CCCCC2)CC(C)(C)C1 (centres undefined),-3,-5
Cc1nc(SCc2cccc(C(=O)NCc3ccco3)c2)nc(N2CCN(C/C=C/c3ccccc3)CC2)c1C,1,6
CCCNC(C)C(=O)Nc1ccccc1C (centres undefined),-2&2&0&4,-8&-1&-2&-29
CSc1ccc2c(C)cc(NCCN3CCCC(C(N)=O)C3)nc2c1 (centres undefined),4,3
CCCC(=O)OCC(O)CN(Cc1ccco1)Cc1ccccc1OC (centres undefined),10,21
Fc1ccccc1Cc1noc(CN2CC[C@@H]3CCCC[C@H]3C2)n1,-3,-5
COc1ccc(S(=O)(=O)N(C)CCc2ccccc2)cc1N1CCN(C(=O)c2ccc(Cl)cc2)CC1,2,-7
O=C(Nc1ccc(Cl)cc1)N1CCSC12C(=O)N(Cc1ccc(F)cc1F)c1ccccc12 (centres undefined),-2,10
CCCCCc1ccc(C(=O)N2CCCN(C(=O)C(C)N3CCc4sccc4C3c3ccccc3C)CC2)cc1 (centres undefined),3,18
C(=Cc1ccc2ccccc2n1)c1ccc2c(c1)OCO2,7,3
O=C(NC(c1ccc(F)cc1)c1cnccn1)C1CCN(CCc2ccc(Br)cc2)CC1 (centres undefined),8,-3
O=C(CN1CCN(C(=O)c2cncc(Br)c2)CC1)Nc1cccc(F)c1,-5,-7
CCOC(=O)C1=C(O)/C(=C\c2ccc(O)c(O)c2O)SC1=Nc1cccc(Cl)c1,-5,-2
Cc1ccsc1-c1cn(CCCc2nc3ccccc3[nH]2)nn1,0,-3
CC1C(=O)N(c2cccc(C(F)(F)F)c2)CCN1C(=O)C1CCCC1 (centres undefined),-14,-3
COc1ccc(-c2cn3nc(SCC(=O)N4CCCC4)ccc3n2)cc1,-4,-6
Cc1ccc(C)c2[nH]c(=O)c(CCNS(C)(=O)=O)cc12,2,-1
